# Assay outcomes deposited in PubChem BioAssay by National Center for Advancing Translational Sciences (NCATS).
# EPAC1 ag val – human EPAC1 agonism, validation; O95398; EPAC1 Rap1b BODIPY-GDP exchange, fluorescence; Potency, µM, without a hit: max response, positive = active, hits mostly activators; 16,000 tested, 1% active; AID 1645883; active means well fitted activation curve with a large enough effect; inconclusive means small, poorly fitted or top-dose-only effect; inactive means no such curve, though single readings can be large or run the other way;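 further: nearly all actives have a fitted effect of over 70% in size; series mostly up to about 76 or 150 µM; scaled to a cAMP control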
# Target sequence (O95398 whole entry, looked up): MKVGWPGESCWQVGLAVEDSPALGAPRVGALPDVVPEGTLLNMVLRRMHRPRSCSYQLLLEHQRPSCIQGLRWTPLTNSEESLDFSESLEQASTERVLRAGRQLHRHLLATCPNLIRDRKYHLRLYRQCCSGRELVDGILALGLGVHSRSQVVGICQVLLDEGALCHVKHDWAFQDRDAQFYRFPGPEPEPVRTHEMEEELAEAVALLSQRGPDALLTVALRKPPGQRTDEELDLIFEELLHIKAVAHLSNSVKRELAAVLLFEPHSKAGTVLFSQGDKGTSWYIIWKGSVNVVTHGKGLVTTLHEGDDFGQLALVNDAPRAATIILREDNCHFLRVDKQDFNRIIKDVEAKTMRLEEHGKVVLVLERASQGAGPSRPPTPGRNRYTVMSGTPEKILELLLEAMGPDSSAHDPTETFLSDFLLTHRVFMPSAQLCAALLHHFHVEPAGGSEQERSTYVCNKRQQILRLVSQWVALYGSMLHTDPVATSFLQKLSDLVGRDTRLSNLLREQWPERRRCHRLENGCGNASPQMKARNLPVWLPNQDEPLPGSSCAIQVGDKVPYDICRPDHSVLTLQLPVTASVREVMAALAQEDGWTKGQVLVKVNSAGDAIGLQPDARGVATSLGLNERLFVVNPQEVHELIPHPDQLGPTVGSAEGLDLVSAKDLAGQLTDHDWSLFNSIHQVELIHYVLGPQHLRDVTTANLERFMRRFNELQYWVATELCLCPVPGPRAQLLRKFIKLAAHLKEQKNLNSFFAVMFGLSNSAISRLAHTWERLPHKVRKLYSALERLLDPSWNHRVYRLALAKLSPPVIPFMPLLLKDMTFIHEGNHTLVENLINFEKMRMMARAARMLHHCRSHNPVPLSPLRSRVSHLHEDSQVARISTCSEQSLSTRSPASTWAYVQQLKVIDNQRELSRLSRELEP
# * hit, by the source's call; ? = inconclusive; & = joins results of further samples; [ ] = dose if it differs, or a comment. On the % scale 0 is the no-effect control and ±100 the full control effect; potency means the concentration at half of the fitted maximal effect. A portion of the library (hit frequency here may not be typical).
smiles | EPAC1 ag val
COCCn1c(=O)c(-c2cc(F)cc(F)c2)nc2cnc(N3CCOCC3)nc21 | -13%
O=c1c(-c2cc(O)c(O)c(O)c2)coc2cc(O)c(O)c(O)c12 | 8%
O=C(c1ccco1)N1CCC[C@@]2(CCN(c3ccccn3)C2)C1 | -77%[inhibitor]
Cn1cc(-c2nc3cnc(N4CCOCC4)nc3n(C3CC3)c2=O)c2ccccc21 | ?
CO/N=C(/C(=O)N[C@H]1C(=O)N2C(C(=O)O)=C(COC(C)=O)CSC12)c1csc(N)n1 (stereo not given in full) | 7%
FC(F)(F)c1ccccc1-c1nc(Nc2ccncc2)c2ccccc2n1 | -21%
NCCCCCCNS(=O)(=O)c1cccc2ccccc12 | 5%
COc1ccc2c(c1)-c1nc(-n3ncc(C(=O)NC(C)(C)CO)c3C3CC3)ncc1CC2 | -8%
C=CCCCCCCCCC(=O)O | -18%
O=c1c(-c2cccs2)nc2cnc(N3CCOCC3)nc2n1-c1ccccc1 | ?
COCC(=O)Nc1cc(C(=O)N2CCOc3ccccc3C2)cc2nc(-c3cccnc3)n(C)c12 | -2%
CCCC(CCC)C(=O)OC1C[C@H]2CC[C@@H](C1)[N+]2(C)C (stereo not given in full) | 3%&13%
CC1(C)CC2C1CC[C@]1(C)CCC3C(C(=O)O)CC(=O)O[C@]32C1 (stereo not given in full) | -127%[inhibitor]
Cc1ccccc1C1(CC(=O)N2CC3CC4CC(C3)CC2C4)CC(=O)N(Cc2cccnc2)C1=O (stereo not given) | 7%
O=C(O)C#CC(=O)O | -3%
O=S1(=O)CCO[C@H]2Cc3ccccc3[C@H]2N1Cc1ccccc1 | 8%
Cc1nc2cnc(N3CCNCC3)nc2n(CCc2ccccc2)c1=O | -49%[inhibitor]
COC(=O)C1CCN(Cc2ccc3c(c2)CN(C(=O)c2ccc4nc(C)c(C)nc4c2)CCO3)CC1 | -12%
Cc1cnc(CNc2ccnc(-c3cccc(NS(C)(=O)=O)c3)n2)cn1 | -21%
Cc1cc(C(=O)NCc2nc(-c3cccc(NC(=O)c4cc(C)oc4C)c3)oc2C)nc(C)n1 | 4%
CC1=C(C(=O)O)N2C(=O)C(NC(=O)C(N)C3=CCC=CC3)C2SC1 (stereo not given) | 18%
CC1CC[C@@]2(OC1)OC1CC3C4CC[C@H]5CC(O)CC[C@@]5(C)C4CC[C@]3(C)C1C2C (stereo not given in full) | 5%
COc1cccc(-c2ccc3ncnc(N4CCNCC4)c3c2)c1 | 0%
O=C(c1cnccn1)N1CCC2(CC1)CN(Cc1cc(C(F)(F)F)cc(C(F)(F)F)c1)C2 | -34%[inhibitor]

# Part of the list above in order of molar mass, high to low.
smiles | EPAC1 ag val
Cc1ccccc1C1(CC(=O)N2CC3CC4CC(C3)CC2C4)CC(=O)N(Cc2cccnc2)C1=O (stereo not given) | 7%
O=C(c1cnccn1)N1CCC2(CC1)CN(Cc1cc(C(F)(F)F)cc(C(F)(F)F)c1)C2 | -34%[inhibitor]
CC1(C)CC2C1CC[C@]1(C)CCC3C(C(=O)O)CC(=O)O[C@]32C1 (stereo not given in full) | -127%[inhibitor]

# Continuation.
smiles | EPAC1 ag val
Cn1c(=O)[nH]c2ncn(C)c2c1=O | -6%&-5%&-10%
N[C@H](CCC(=O)N[C@H](CSN=O)C(=O)NCC(=O)O)C(=O)O | -18%
COC(=O)N1CCC2(CC1)CN(C(c1ccccc1)c1ccccc1)C2 | 19%
CN(C)c1ncc2nc(-c3cccc(C#N)c3)c(=O)n(CCC#N)c2n1 | -20%
COc1ccc(CN2CCOc3ccc(CN4CCCCC4CO)cc3C2)c(OC)c1 (stereo not given) | 8%
CC(=O)O[C@]1(C)CC[C@]23CC1C(C)(C)C2CC[C@@H]3C (stereo not given in full) | -46%[inhibitor]
Cc1ccccc1C(=O)NC(C)c1nnc2n1CCN(Cc1ccc(F)cc1)CC2 (stereo not given) | 7%
Cc1occc1C(=O)Nc1cccc(-c2nc(CNC(=O)c3ccc(N4CCCCC4)cc3)c(C)o2)c1 | 18%
O=c1c(-c2ccccc2)coc2cc(O)cc(O)c12 | -2%
CS(=O)(=O)N1CCC2(CC1)CN(C(=O)Nc1cccc(C#N)c1)C2 | 8%
CN(C)C(=O)c1ccc(-c2cncnc2NCCc2cnc[nH]2)cc1 | -30%
CC(=O)N1CCC[C@@]2(CCN(Cc3nccs3)C2)C1 | -47%[inhibitor]
O=c1c(-c2ccccc2)nc2cncnc2n1-c1ccccc1 | -12%
C=C1C[C@@]23C[C@@]1(O)CCC2[C@@]12C=CC(O)[C@](C)(C(=O)O1)C2C3C(=O)O (stereo not given in full) | ?
COCCn1c(=O)cnc2cnc(Oc3ccccc3)nc21 | -29%
NC(C(=O)O)c1cc(O)c(Cl)c(O)c1 (stereo not given) | -1%
CC1CCC(C(C)(C)O)CC2=C1CCC2C (stereo not given) | -75%[inhibitor]
COc1ccc(C(=O)N(Cc2cc3cccc(C)c3nc2N(C)C)CC2CCCO2)cc1 (stereo not given) | 0%
CCN(CC)CCC(=O)N1c2ccccc2Sc2ccc(Cl)cc21 | 8%
CC(=O)OC1CC2C(C)(C)C(=O)CC[C@]2(C)C2CC[C@@]3(C)C(c4ccoc4)OC(=O)C4OC43[C@]12C (stereo not given in full) | 26%
O=C(NC(Cc1cc(=O)[nH]c2ccccc12)C(=O)O)c1ccc(Cl)cc1 (stereo not given) | 13%
C[C@H](NC(=O)OC(C)(C)C)[C@@H](O)c1ccco1 | -2%
O=C1C(Nc2ccccc2)=CC(=O)c2ncccc21 | -16%
COc1ccc(-c2nc3cnc(N4CCNCC4)nc3n(CCC#N)c2=O)cc1 | -4%
CN(C)c1ccc(-c2nc(NCCc3cnc[nH]3)c3ccccc3n2)cc1 | 9%
O=C(c1cnsn1)N1CCOc2ccc(CN3CCOCC3)cc2C1 | 0%
Oc1ccc(Cl)cc1Cc1cc(Cl)ccc1O | ?
N#Cc1cc2c(OCC(O)CN3CCN(C(c4ccccc4)c4ccccc4)CC3)cccc2[nH]1 (stereo not given) | 29%&4%
O=C(NNCNNC(=O)c1ccncc1)c1ccncc1 | 7%
C/C(=C\c1ccco1)CN1CCOc2ccc(CN3CCC(Oc4cccnc4)CC3)cc2C1 | -18%
O=C1[C@H](Cc2ccccc2)NC/C=C\C[C@@H](c2ccco2)N1Cc1ccccc1 | -19%
CC(C)NC(=O)N1CCC2(CC1)CCN(C(=O)c1cccn1C)CC2 | -50%[inhibitor]
Nc1ncnc2c1ncn2C1CCCO1 (stereo not given) | 22%&-3%
N#Cc1ccc(CN2CCCC3(CCN(C(=O)c4cccc(F)c4)CC3)C2)cc1 | -19%
COCCN1CCN(C(=O)c2cnn(-c3nccc(-c4ccco4)n3)c2C(C)C)CC1 | 5%
O=C1c2c(O)cc(O)cc2OC(c2ccc(O)c(O)c2)C1O (stereo not given) | 8%&-1%
CCN(c1ccccc1)c1cc(NC)[n+](C)c(C)n1 | -15%
CC1CN(S(=O)(=O)c2cccc3cnccc23)CCN1 (stereo not given) | -10%
[O-][N+]12CCCc3cccc(c31)CCC2 | -12%
Nn1nnc2ccccc21 | -6%
Cc1cccc(CNC(=O)c2c3n(c(C)cc2=O)-c2ccccc2SC(c2ccsc2)C3)n1 (stereo not given) | -9%
O=C(c1cnccn1)N1CCC[C@@]2(CCN(C(c3ccccc3)c3ccccc3)C2)C1 | 7%
O=S1(=O)CCOC[C@H](CC2CCCCC2)N1Cc1ccccc1F | -21%
CCCCCCCC(=O)OC[C@H](CO)OC(=O)CCCCCCC | -23%
O=C(O)CCCCCCCCc1cn(CCc2c[nH]c3ccccc23)nn1 | -74%[inhibitor]
COc1ccc2[nH]cc(CCNc3ccnc(-c4ccc(N(C)C)cc4)n3)c2c1 | ?
COc1ccc(NC(=O)N2CC[C@@]3(CCCN(C(=O)c4ccncc4)C3)C2)cc1 | -57%[inhibitor]
OCC(O)C(O)C(O)CO (stereo not given) | 1%
CCC(C(=O)O)c1ccccc1 (stereo not given) | ?
O=C1CCN(Cc2ccc([N+](=O)[O-])cc2)CCN1[C@H](CO)c1ccccc1 | 14%
CN1C[C@H](C(=O)N[C@]2(C)O[C@@]3(O)[C@H]4CCCN4C(=O)[C@H](Cc4ccccc4)N3C2=O)C[C@H]2c3cccc4[nH]cc(c34)C[C@@H]21 | 12%
C=CC1=C(C)C2=Cc3c(C=C)c(C)c4[n]3[Sn+2][n]3c(c(C)c(CCC(=O)O)c3=CC3=NC(=C4)C(C)=C3CCC(=O)O)=CC1=N2 | 8%
COc1ccccc1CN1CC2(CCN(S(=O)(=O)c3ccccc3)CC2)C1 | 13%
N#Cc1ccccc1OC[C@H](O)CNCCNC(=O)Nc1ccccc1 | -20%
CC(=O)N[C@@H](CC(C)C)C(=O)O | 13%
O=C(Nc1ccc(/C=C/c2ccc(NC(=O)c3cc(S(=O)(=O)O)c4cccnc4c3O)cc2S(=O)(=O)O)c(S(=O)(=O)O)c1)c1cc(S(=O)(=O)O)c2cccnc2c1O | ?
CN(C)C(=O)CCSC(SCCC(=O)O)c1cccc(/C=C/c2ccc3ccc(Cl)cc3n2)c1 (stereo not given) | -20%
Cc1ccc(C(=O)c2ccc(CC(=O)O)n2C)cc1 | ?
c1ccc2c(Nc3ccncc3)nc(-c3ccc4c(c3)OCO4)nc2c1 | 11%
Cc1oc(-c2ccccc2NC(=O)c2ccccn2)nc1CNC(=O)c1cccc(C#CC(C)(C)O)c1 | ?

# Random excerpt: 2 compounds from above, in no set order.
smiles | EPAC1 ag val
O=C1CCN(Cc2ccc([N+](=O)[O-])cc2)CCN1[C@H](CO)c1ccccc1 | 14%
CC(=O)N[C@@H](CC(C)C)C(=O)O | 13%

# The listing continues:
smiles | EPAC1 ag val
CC(C)C(=O)c1c(C(C)C)nn2ccccc12 | ?
CC(NC(=O)c1cc(F)ccc1F)c1nnc2n1CCN(Cc1ccc(-c3ccccc3)cc1)CC2 (stereo not given) | 0%
COc1ncc2ncc(=O)n(C)c2n1 | ?
NCCNC(=O)c1ccc(Cl)cc1 | 2%
COC1[C@@H](O[C@@H]2O[C@H](C)[C@@H](O[C@H]3C[C@@](C)(O)[C@H](OC(=O)CC(C)C)[C@H](C)O3)[C@H](N(C)C)[C@H]2O)[C@@H](CC=O)C[C@@H](C)[C@@H](O)/C=C/C=C/C[C@@H](C)OC(=O)C[C@H]1OC(C)=O (stereo not given in full) | -7%
Cc1cccc2c(C(O)c3c[nH]c4c(C)cccc34)c[nH]c12 | 13%
O=c1c(-c2cccs2)nc2cnc(N3CCNCC3)nc2n1-c1ccccc1 | ?
C[N+]1(CC(=O)c2ccc(Cl)cc2)CCOCC1 | 19%
CC1CC[C@@]2(C(=O)O)CCC3(C)C(=CCC4[C@]5(C)CC(O)C(O)[C@](C)(CO)C5C(O)C[C@@]43C)C2C1C (stereo not given in full) | -38%[inhibitor]
CN1CCN(c2ncc3nc(CCc4ccccc4)c(=O)n(C4CC4)c3n2)CC1 | ?
OC[C@H]1O[C@@H](n2cnc3c(NC4CCCC4)nc(Cl)nc32)[C@H](O)[C@@H]1O | -1%
O=c1c(-c2ccc(Cl)cc2)nc2cnc(N3CCNCC3)nc2n1-c1ccccc1 | -7%
C[C@@H]1CCC2[C@@H](C)[C@@H](O)O[C@@H]3O[C@@]4(C)CC[C@@H]1[C@@]23OO4 (stereo not given in full) | ?
O=C(c1cccc(F)c1)N1CCC2(CCCN(Cc3ccccc3)C2)CC1 | -22%
CN1CCN(c2nc3cc(C(F)(F)F)ccc3n3cccc23)CC1 | -14%&-16%&-5%
Nc1ccc(C(=O)NCC(=O)O)cc1 | -4%&7%
O=C(O)C(Oc1ccc2ccc(=O)oc2c1)c1ccccc1 (stereo not given) | -7%
C[C@@]12CC(=O)C3=C(CCCC3=O)N1CCc1ccccc12 | 13%
COc1cc2c(Nc3ccc(Br)cc3F)ncnc2cc1OCC1CCN(C)CC1 | 10%
CN(C)C(=O)c1ccc(-c2nccc(N(C)Cc3ccco3)n2)cc1 | 12%
COCCn1c(=O)c(-c2ccccc2)nc2cncnc21 | 1%
COc1ccccc1C1CN(Cc2c(O)cccc2OC)Cc2ccccc2O1 (stereo not given) | 2%
CCNc1ncc2nc(CCc3ccccc3)c(=O)n(CCC#N)c2n1 | -32%[inhibitor]
COc1ccc(/C=c2\[nH]c(=O)/c(=C/c3ccc(OC)cc3)[nH]c2=O)cc1 | -21%
Cc1ccc(CN2CCOCCS2(=O)=O)cc1 | 28%
O=C1[C@H]2[C@H](C=CC[C@H]2C(=O)N2CCN(c3ccccc3)CC2)CCN1Cc1ccccc1 | 14%
CN1CCN(C2Cc3ccccc3Sc3ccc(Cl)cc32)CC1 (stereo not given) | 2%&-12%
O=C(Oc1ccccc1)c1ccccc1O | -1%
O=C(Oc1ccccc1)N1CCC[C@@]2(CCN(c3ccccn3)C2)C1 | -58%[inhibitor]
O=C1c2ccccc2CN2C(=O)c3ccccc3CN12 | 6%
C(=C\c1ccncc1)/c1ccccc1 | 3%&-6%
O=C1CCC[C@@H]2Cc3nc4ccccc4cc3[C@@H]3CCN1[C@H]23 | ?
Cc1cnc(CNc2ncncc2-c2c(C)noc2C)cn1 | -15%
CCOc1ccccc1O[C@H](c1ccccc1)[C@H]1CNCCO1 | -8%

# An excerpt from above in order of their number in EPAC1 ag val, low to high.
smiles | EPAC1 ag val
COCCn1c(=O)cnc2cnc(Oc3ccccc3)nc21 | -29%
COc1cccc(-c2ccc3ncnc(N4CCNCC4)c3c2)c1 | 0%
COCCN1CCN(C(=O)c2cnn(-c3nccc(-c4ccco4)n3)c2C(C)C)CC1 | 5%
